hNpr1 antagonist – antagonists of human natriuretic peptide receptor Npr1; actives 1.6% (n = 76,000); Potency, µM (highest dose often 46.3 µM), inactives show at the top dose activity change, negative = inhibition, usual class: inhibitors; HEK293 hNpr1 GloSensor cGMP, ANP-stimulated luminescence; AID 1347048; active = well fitted inhibition curve with a large enough effect; inconclusive = small, poorly fitted or top-dose-only effect; inactive = no such curve, though single readings can be large or run the other way;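 further: nearly all actives have a fitted effect of over 60% in size; nearly all hits also lower the signal before the agonist is added; a reference antagonist and vehicle were the controls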
Target sequence (P16066 whole entry, looked up): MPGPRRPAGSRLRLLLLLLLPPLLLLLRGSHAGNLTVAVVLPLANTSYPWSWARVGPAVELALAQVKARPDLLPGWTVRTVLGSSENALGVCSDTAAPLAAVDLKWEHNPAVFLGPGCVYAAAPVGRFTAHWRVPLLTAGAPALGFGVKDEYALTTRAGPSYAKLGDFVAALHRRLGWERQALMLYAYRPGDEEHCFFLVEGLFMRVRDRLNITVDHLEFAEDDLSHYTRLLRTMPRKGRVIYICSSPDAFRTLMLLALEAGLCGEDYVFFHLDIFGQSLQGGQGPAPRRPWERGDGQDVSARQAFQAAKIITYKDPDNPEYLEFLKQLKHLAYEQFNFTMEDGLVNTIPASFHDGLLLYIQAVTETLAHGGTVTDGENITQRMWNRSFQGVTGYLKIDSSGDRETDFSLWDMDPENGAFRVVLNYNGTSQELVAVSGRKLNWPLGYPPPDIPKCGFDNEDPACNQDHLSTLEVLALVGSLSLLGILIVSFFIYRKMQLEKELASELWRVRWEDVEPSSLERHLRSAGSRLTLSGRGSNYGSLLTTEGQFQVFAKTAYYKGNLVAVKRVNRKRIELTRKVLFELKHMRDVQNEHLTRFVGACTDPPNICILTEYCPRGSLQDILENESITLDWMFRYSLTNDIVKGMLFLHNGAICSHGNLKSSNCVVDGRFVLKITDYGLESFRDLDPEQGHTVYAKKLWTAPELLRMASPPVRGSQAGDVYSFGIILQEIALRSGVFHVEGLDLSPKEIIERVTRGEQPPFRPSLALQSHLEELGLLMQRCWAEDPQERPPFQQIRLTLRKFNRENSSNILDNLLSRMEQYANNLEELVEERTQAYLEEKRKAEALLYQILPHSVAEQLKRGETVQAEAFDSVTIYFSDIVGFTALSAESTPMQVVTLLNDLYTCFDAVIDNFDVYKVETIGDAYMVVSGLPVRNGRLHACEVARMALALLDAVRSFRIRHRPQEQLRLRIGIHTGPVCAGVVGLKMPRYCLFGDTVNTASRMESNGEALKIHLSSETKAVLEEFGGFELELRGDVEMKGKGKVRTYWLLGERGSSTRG
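HEK293 cells stably expressing human Npr1 and cGMP GloSensor pGS-40F, loaded 2 h with 2% GloSensor reagent, given compound 30 min at room temperature. Luminescence read before and 20 min after 0.1 nM hNppA.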
Active calls of the source: *; ? = inconclusive; [ ] = another dose, or the depositor's remark. On the % scale 0 is the no-effect control and ±100 the full control effect; potency means the concentration at half of the fitted maximal effect.

hNpr1 antagonist	Compound
1.2%	CN(CCNC(=O)c1cn2ccnc(-c3ccccc3)c2n1)C1CCCCC1
7.3%[70.6 µM]	CN(C)C(=O)c1nc(-c2ccc(Cl)cc2)c2ccccn12
-20.9%	Cc1cc(C2CC(C(=O)NCc3ccco3)CN(C(=O)c3ccccc3)C2)ccc1F (stereo unspecified)
-20.2%	CCOc1ccccc1NC(=O)Cn1c(N2CCC(C)CC2)nc(C)cc1=O
-1.1%	COc1ccc(S(=O)(=O)N2CCC3(CC2)CC(OC)CCO3)cc1 (stereo unspecified)
-2.8%[70.6 µM]	CN(C)Cc1cc(C[C@@H]2C[C@H](NS(=O)(=O)c3ccc(F)cc3)C2(C)C)no1
-3.7%	COCCNCc1ccc(-c2cccc(Cl)c2)o1
-2.3%	CCS(=O)(=O)N(C1CC1)C1CCOC2(CCN(C(=O)NCc3ccccc3)CC2)C1 (stereo unspecified)
0.4%	COc1cccc(-c2nc(N3CCCCC3)ncc2C(=O)O)c1
-0.8%	Cc1noc(C2CC3(CCN(C(=O)Cc4cccc(F)c4)CC3)CN2C)n1 (stereo unspecified)
4.6%[70.6 µM]	COc1ccccc1CN1CC2(C1)C(=O)N(Cc1ccccc1)C(=O)[C@@H]1C[C@@H](O)CN12
-3.2%	Cc1ccc(NC(=O)c2cc3c(N4CCSCC4)nc(C)cn3n2)cc1
-4.5%	CN(C)[C@@H]1CN(C(=O)CN2CCCCCC2)CC[C@@H]1CO
-1.7%[70.6 µM]	Cc1ccc2c(n1)N(C)[C@H](CO)CCN(Cc1ccccc1F)C2
-11.7%	O=C(CN1CCCc2nc(C3CC3)ncc2C1=O)NCc1ccc(OC(F)(F)F)cc1
-0.8%	O=C(c1ccsc1)N1CCC2(CC1)CC(N(C(=O)c1ccccc1)C1CC1)CCO2 (stereo unspecified)
2.0%	CN(Cc1ccccc1)c1ncnc2c1CCN(C(=O)C1CCC1)CC2
-8.7%[70.6 µM]	O=C(NCCOc1ccccc1)c1cnc2n1CCN(Cc1cccs1)CC2
0.7%	O=C1CC(c2ccccc2)N(C(=O)C2CC2)CCCN(C(=O)CCc2c[nH]c3ccccc23)CCN1 (stereo unspecified)
0.4%[70.6 µM]	COc1cc(F)ccc1-c1cc(-c2c(C)noc2C)cc2c1C(=O)N(C)C2=O
-6.1%	Cc1ccccc1-n1nnnc1C(c1ccccc1)N(C)C(=O)c1cn[nH]n1 (stereo unspecified)
0.9%	CS(=O)(=O)N1CCCN(C(=O)c2ccc(C#N)cc2)CCNC(=O)CC1c1ccccc1 (stereo unspecified)
12.6%	CCc1noc(-c2ccn3c(CNC(=O)c4ccco4)nnc3c2)n1
3.4%	CC1CCC2(CC1)NC(=O)N(CC(=O)NCCc1cccs1)C2=O (stereo unspecified)
4.2%[70.6 µM]	CCN(CC)[C@H]1C[C@@H](Cc2cc(CCO)on2)C1(C)C

Following part.
hNpr1 antagonist	Compound
5.5%	CC(C)c1nncn1C1CCN(S(=O)(=O)c2ccc(F)cc2F)CC1
-0.6%	COc1ncccc1C(=O)N1CCc2c(nc(-c3cccnc3)[nH]c2=O)C1
-10.4%[70.6 µM]	COc1ccc(C2=NOC3(CCN(Cc4ccccc4)C3)C2)cc1 (stereo unspecified)
-0.5%	COCc1nncn1C1CCN(S(=O)(=O)c2cccc(Cl)c2)CC1
-0.6%	CCc1nc2nccc(-c3cccc(OC)c3)n2n1
4.6%	CN1CCC(CNc2ncc(C(C)(C)C(=O)O)c(N3CCOCC3)n2)C1 (stereo unspecified)
5.5%	CN(CC1CCOC1)S(=O)(=O)c1ccc(Cl)cc1 (stereo unspecified)
-14.1%	Cc1ccccc1Cc1noc(-c2nc(-c3ccc4c(c3)OCO4)no2)n1
0.5%[70.6 µM]	CCc1cn(C[C@H](NC(=O)C2CCCC2)C(=O)O)c(=O)[nH]c1=O
0.2%	COCCN(C)C[C@H]1C[C@H](CO)CN(C(=O)c2ccc(Cl)c(F)c2)C1
-3.1%[70.6 µM]	NC(=O)[C@H](Cc1cccs1)NC(=O)C1=C[C@@H](NC(=O)c2cnccn2)[C@@H](O)[C@H](O)C1
-5.7%	CCc1ccc(N2CC(c3noc(-c4cc(F)cc(F)c4)n3)CC2=O)cc1 (stereo unspecified)
28.0%[70.6 µM]	CNC(=O)C1CN(c2cccc(OC)c2)C(=O)N1 (stereo unspecified)
0.3%	CCN1C(=O)C2CC3(CCN(S(=O)(=O)c4cnn(CC)c4)CC3)CN2C1=O (stereo unspecified)
2.9%	CC(NC(=O)c1csc(N2CCN(c3ccccc3F)CC2)n1)c1ccccc1 (stereo unspecified)
-3.1%	Cc1nonc1CC(=O)N[C@@H]1COCC[C@@H]1OCc1cscn1
1.3%	COc1cccc(CN2CCc3nc(C)nc(-c4ccc(O)cc4)c3C2)c1
-1.1%	Cc1ccsc1CN1CCC[C@H]1C(=O)N1CCCCCCNC(=O)CC1
0.2%[70.6 µM]	CC1(C)[C@H](Cc2cc(CCO)on2)C[C@@H]1NC(=O)C1CCC1
3.0%[70.6 µM]	CC[C@H]1CN(C(=O)C(C)(C)C)CC[C@H]1CC(=O)N1CCC(C(=O)OC)CC1
-1.9%	Cc1ccc(C)c(NC(=O)N2CCCC2c2nncn2-c2ccccc2)c1 (stereo unspecified)
-1.9%	Cc1noc(C)c1S(=O)(=O)N1CCC(N2CC(OCC3CC3)C23CCCCC3)CC1 (stereo unspecified)
0.6%	CCC(=O)N1CC(C(=O)N2CCCCC2)[C@H](c2ccncc2)C1 (stereo partly specified)
1.3%	Cc1nc(C)c(C(=O)N2[C@@H]3CC[C@H]2CC(NC(=O)c2ccncc2)C3)s1 (stereo partly specified)
-14.6%	O=C(Cc1c[nH]c2ccccc12)NC1CCCc2c1[nH]c1ccc(F)cc21 (stereo unspecified)

Continuation.
hNpr1 antagonist	Compound
1.4%	COCCOc1ccc2c(n1)CCN(C(=O)Nc1ccccc1C)C2
-6.1%	c1cncc(Cc2noc(C3CN(Cc4ccsc4)C3)n2)c1
-16.3%[70.6 µM]	C=CCNC(=O)[C@@H]1Cc2cn(CC3CC3)c3cccc(c23)[C@H](CC(C)C)N1
-15.2%[70.6 µM]	CC(C)c1noc([C@@H]2Cc3nc[nH]c3CN2Cc2ccc(F)cc2)n1
-24.6%	CCOC(=O)c1ccc(NC(=O)c2ccc3c(c2)N(CC)C2CCCCN2C3=O)cc1 (stereo unspecified)
1.3%[70.6 µM]	CN1C[C@H]2CN(C(=O)c3cccnc3)CCN2C1=O
0.3%	Cn1nccc1C(=O)N1CCC2(CC1)CC(N(C(=O)c1ccccc1)C1CC1)CCO2 (stereo unspecified)
-6.4%	COc1ccc(C(=O)N[C@@H]2CCC[C@@H]2C(=O)NCCc2ccccn2)cn1
3.5%	COCCC(=O)N1CCC(N2C(=O)C(OC)C23CCOCC3)CC1 (stereo unspecified)
5.5%[70.6 µM]	COc1ccc(-c2nc(-c3c(C)noc3C)cc3cc(C(C)C)oc23)cn1
1.0%	O=S(=O)(c1ccccc1Cl)N1CCCC1c1nncn1C1CCCC1 (stereo unspecified)
31.6µM*	COc1ccc(CN2CCOc3nc(-c4cccc(C(F)(F)F)c4)ncc3C2=O)cc1
-5.8%	COc1ccc(C[C@H](NC(=O)[C@@H]2C[C@H](NC(=O)Nc3cccc(SC)c3)CN2C(=O)CC(C)(C)C)C(N)=O)cc1
-9.2%	Cc1nc2c(c(-c3ccc(Cl)cc3)n1)CCN(C(=O)c1ccccc1Cl)CC2
1.6%	O=C(Cc1ccccc1)N1CCC(c2n[nH]c(=O)n2Cc2ccc(F)cc2)CC1
-1.9%	COCCc1nncn1C1CCN(S(=O)(=O)c2ccc(Cl)c(C)c2)CC1
-5.0%[70.6 µM]	Cc1onc(-c2cnn(C)c2NCc2ccc(C#N)cc2)c1C(=O)NCC(C)C
-1.4%	Cc1ccccc1-n1nc(-c2c(C)nc3scc(CC(=O)NCC(C)C)n3c2=O)cc1C
5.7%	COCC(=O)NC1CCC12CCN(C(=O)Cc1cccnc1)CC2 (stereo unspecified)
-4.3%	CCC1Oc2ccc(NC(=O)c3ccc([N+](=O)[O-])cc3)cc2CN(Cc2ccccc2)C1=O (stereo unspecified)
-23.6%[70.6 µM]	COc1cccc(CN2CCNc3cnc(OCc4cccnc4)cc3C2)c1
0.8%[70.6 µM]	O=C(Nc1ccc(F)cc1)N[C@H]1[C@H](O)[C@@H](N2CCOCC2)[C@@H]2OC[C@H]1O2
-14.1%[70.6 µM]	Cc1noc(C)c1-c1cnc2n[nH]c(-c3ccccc3)c2n1
6.6%	Cc1c(Cl)cc(C(=O)N2CCCC(C#N)C2)cc1Cl (stereo unspecified)
?	Cc1ccccc1CN1CC[C@H](c2nc3ccc(F)cc3[nH]2)C1

(continued)
hNpr1 antagonist	Compound
1.9%	CCn1cc(CN(C)C(=O)c2ccc3c(c2)C(O)CCCCCN3CCOC)c(C)n1 (stereo unspecified)
-17.8%	O=C(c1ccc(C(F)(F)F)cc1)N1CCC2(CC1)COc1ccccc1CN2
0.4%	CCN(CC)CCNC(=O)C1CCCN(Cc2ccncc2)CCC(=O)NCC1 (stereo unspecified)
-2.4%	c1ccc(-c2noc(-c3cncnc3N3CCN(C4CCCCC4)CC3)n2)cc1
-15.2%	COCCNC(=O)c1cc2n(n1)CC(c1ccc(Br)cc1)OC2 (stereo unspecified)
5.6%	CN1C[C@@H]2CCCN3CCC[C@@H]([C@H]23)[C@H]1CCCC(=O)NCc1ccccc1
-2.1%	O=C1CCN(S(=O)(=O)c2ccccc2)CCCN(C(=O)c2ccncc2)CCN1
2.1%	COC1CCN(CC2CCCCCN2C(=O)c2cc(F)ccc2F)CC1 (stereo unspecified)
8.9%	COc1ccc(CC(=O)N2CCC(N3CC4CC(C3)[C@H]3CCCC(=O)N3C4)CC2)cc1 (stereo partly specified)
0.3%	COc1ccc(C(=O)N[C@@H]2CCC[C@@H]2C(=O)N2CCN(Cc3ccc(F)cc3)CC2)cc1
-6.2%	Cc1nc(-c2ccc(F)cc2)n(CC(=O)Nc2ccc(F)cc2)c(=O)c1CCO
-0.9%	O=C(CCn1ccc2ccc(Cl)cc21)Nc1ccc2c(c1)C(=O)N1CCC[C@H]1C(=O)N2
-1.1%[70.6 µM]	COC(=O)[C@@H](C)NC(=O)[C@H]1CN(C(=O)c2cccnc2)CCN1S(C)(=O)=O
-7.1%	c1ccc(-c2nnc3n2CCN(Cc2cn(-c4ccccc4)nn2)CC3)cc1
?	CC(C)c1noc(-c2cn(C3CCN(C(=O)c4ccc5c(c4)OCO5)C3)nn2)n1 (stereo unspecified)
-17.7%	Cc1ccc(C(=O)N2CCC3(CC2)CC(N(Cc2ccccc2)C2CC2)CCO3)cc1 (stereo unspecified)
0.8%	O=C(Cc1ccc(F)cc1)N1CC2CC(C1)[C@H]1CCCC(=O)N1C2 (stereo partly specified)
-3.7%[70.6 µM]	COc1ccccc1-c1cnc(Nc2cc(F)cc(N3CCOCC3)c2)c2c1CCO2
?	Cc1csc2c(NCCC3CN(c4cnn(C)c(=O)c4)CCO3)ncnc12 (stereo unspecified)
-2.7%	O=C(CN1CCn2nc(C(O)C3CC3)cc2C1)N1CCc2ccccc21 (stereo unspecified)
-7.8%	CC1CCC2(CC1)NC(=O)N(CC(=O)Nc1ccc(Br)cc1F)C2=O (stereo unspecified)
3.9%	CCCn1c(C)cnc1CC1CCN(C(=O)NC)C1 (stereo unspecified)
-13.8%	Cc1ccc(C)c(NC(=O)N2C[C@H](c3nc(-c4cccnc4)no3)[C@@H](C)C2)c1
-5.7%	Cn1cnc(S(=O)(=O)N2CCC(Cc3nncn3-c3ccccc3)CC2)c1
-4.2%	N#Cc1ccc(CN2CCC3(CNc4ccccc4[S+](=O)([O-])N3)C2)cc1 (stereo unspecified)

Going on with the list:
hNpr1 antagonist	Compound
0.1%	Cc1ccccc1[C@@H]1CN(C(=O)CCC(=O)NC2CCCC2)C[C@H]1C(=O)O
9.9%[70.6 µM]	CC[C@H]1CN(C(C)=O)CC[C@H]1CC(=O)NCCOC
0.0%	Cc1ccc(C)c(OCc2cc(C(=O)N(C)Cc3n[nH]c4c3CCCC4)no2)c1
-1.8%[70.6 µM]	CCC(CC)C(=O)Nc1ccc([C@@H](O)[C@H]2COCC(=O)N2CC2CC2)cc1
-0.2%	O=C(NCC1CCCO1)C1CCN(C(=O)c2ncn3c2COC(c2ccc(F)cc2)C3)CC1 (stereo unspecified)

Bioassay records (PubChem)

Not all compounds are listed; the hit share may differ from the screen's.
